# Screening data (PubChem)
# StopGo RLuc – Primary qHTS Assay for Foot and Mouth Disease Virus Antivirals against NCGC Sytravon and CBC Compound Libraries: Renilla Luciferase Signal | HEK cells with a luciferase reporter of 2A StopGo recoding | Potency, µM (series often up to 57.5 µM), for the others: at the highest dose signal change, negative = less light | actives 0.32% (n = 120,000) | AID 1745857, 2022; active means well fitted falling curve with a large enough effect; inconclusive means small, poorly fitted or top-dose-only effect; inactive means no such curve, though single readings can be large or run the other way; further: nearly all actives have a fitted effect of over 55% in size; overnight with compound
# 2A firefly – Primary qHTS Assay for Foot and Mouth Disease Virus Antivirals against NCGC Sytravon and CBC Compound Libraries: Firefly Luciferase Signal; HEK cells with a luciferase reporter of 2A StopGo recoding; Potency, µM (titrated, usually from 57.5 µM), for inactives: top-dose signal change, negative = less light; actives 0.23% (n = 120,000); AID 1745856, 2022; active = well fitted falling curve with a large enough effect; inconclusive = small, poorly fitted or top-dose-only effect; inactive = no such curve, though single readings can be large or run the other way; further: nearly all actives have a fitted effect of over 60% in size; overnight with compound
# * hit, by the source's call; u = inconclusive; [ ] = dose if it differs, or a comment. On the % scale 0 is the no-effect control and ±100 the full control effect; potency means the concentration at half of the fitted maximal effect. The list is partial; the hit share may differ from the screen's.
# The line under a structure holds: StopGo RLuc, 2A firefly
Cc1cc(C)n(-c2nc3c(c(=O)n(Cc4cccc5ccccc45)c(=O)n3C)n2C)n1
 : 9%, 20%
CCOc1ccc(NC(=O)c2ccc3c(=O)n4nc(Nc5ccccc5C)sc4nc3c2)cc1
 : -3%, -8%
COc1ccc(CNC(=O)C2CCN(S(=O)(=O)N3CCC(C)CC3)CC2)c(OC)c1
 : 1%, -19%
Cc1ccc2c(CN(C)Cc3ccco3)cc(=O)oc2c1
 : 3%, 210%[activator]
COc1ccccc1NC(=O)CSc1ccc(-c2ccccn2)nn1
 : 4%, 27%
Cc1ccc(NC(=O)CSc2nc(-c3cccs3)nc3cc(=O)[nH]n23)cc1
 : -17%, -15%
CC(C)Oc1ccc(C(=O)Oc2ccc(C#N)cc2)cc1
 : 8%, 6%
COC(=O)Cn1c(CN2CCN(c3cc(Cl)ccc3C)CC2)nc2c1c(=O)[nH]c(=O)n2C
 : -2%, 3%
COc1ccc(C2c3c(n(C)c4ccccc34)C(=O)N2CC(=O)Nc2ccccc2Cl)cc1 (centres undefined)
 : -3%, -20%
Cc1nc(Oc2ccccc2C)c2oc3ccccc3c2n1
 : -24%, -18%
Cc1ccc(CNC(=O)c2cnc3c(-c4ccccc4)c(C)nn3c2C)o1
 : 4%, -19%
Cc1ccccc1NC(=O)Cn1c(=O)n(CCc2ccccc2)c(=O)c2ccccc21
 : 1%, 18%
CC(C)C(=O)NCC1(N(C)C)CCCCC1
 : 1%, -23%
Cc1[nH]c2ccc(C34CC5CC(CC(C5)C3)C4)cc2c1CCN
 : -9%[1.06 µM], 27%
Cc1cnc(C(=O)NCc2cccs2)cn1
 : -2%, 14%
O=S(=O)(c1ccccc1)c1nc(-c2ccc(Cl)cc2Cl)oc1N1CCCCCC1
 : -2%, -16%
CC(=O)C1=C(c2ccc(Cl)c(Cl)c2)N(C(C)=O)n2c(nnc2-c2ccccc2)S1
 : 0%, -10%
N#Cc1ccccc1OCc1csc(-c2ccccc2)n1
 : 9%, 143%[activator]
Cc1ccc(-c2noc(-c3cccn3CC(=O)N3CCC(C)CC3)n2)cc1
 : 100%[activator], 27%
COc1ccc(-n2nnc(C(=O)OCc3cc(C)ccc3C)c2C)cc1
 : 0%, 15%
Cc1ccc(S(=O)(=O)n2c3ccccc3c3nc(C)sc32)cc1
 : 72%[activator], 0%
O=C1CC(c2ccccc2O)Cc2nc(N3CCN(c4ccccc4F)CC3)ncc21 (centres undefined)
 : 11µM*, u
CNC(=O)NC(=O)C(C)Sc1cc(C)c2cccc(C)c2n1 (centres undefined)
 : -4%, 3%
CC(c1cc2ccccc2o1)N(C)S(=O)(=O)c1ccccc1 (centres undefined)
 : 3%, -3%
Cc1ccccc1C(=O)Nc1nc(-c2ccc(Cl)s2)cs1
 : 15%, 109%[activator]
CCOC(=O)COc1cc(C)cc2oc(=O)cc(-c3ccccc3)c12
 : -5%, 1%
COc1ccc(NC(=O)Cn2c(=O)n(Cc3ccc(C(=O)NCc4ccccc4Cl)cc3)c(=O)c3ccccc32)cc1OC
 : -7%, -24%
COc1ccc2cc(C(=O)N(C)Cc3ccc(C(N)=O)cc3)[nH]c2c1
 : u, 0%
O=S(=O)(Nc1cccc(C(F)(F)F)c1)c1ccc(-c2cnc(C3CC3)o2)cc1
 : -90%, u
Cc1ccc(C)c(Cn2c(=O)n(-c3ccc(Cl)cc3)c(=O)c3c4c(sc32)CCC4)c1
 : 7%, 3%

# Of the compounds above, these contain a furan ring, fused or not:
# The line under a structure holds: StopGo RLuc, 2A firefly
Cc1ccc2c(CN(C)Cc3ccco3)cc(=O)oc2c1
 : 3%, 210%[activator]
Cc1nc(Oc2ccccc2C)c2oc3ccccc3c2n1
 : -24%, -18%
Cc1ccc(CNC(=O)c2cnc3c(-c4ccccc4)c(C)nn3c2C)o1
 : 4%, -19%
CC(c1cc2ccccc2o1)N(C)S(=O)(=O)c1ccccc1 (centres undefined)
 : 3%, -3%

# (list continues)
# The line under a structure holds: StopGo RLuc, 2A firefly
N#Cc1nc(-c2ccc(S(=O)(=O)N3CCOCC3)cc2)oc1N1CCC(Cc2ccccc2)CC1
 : -3%, -3%
Cc1cc(OCC(=O)Nc2cc(-c3nc4ncccc4o3)ccc2C)ccc1Cl
 : -10%, 4%
CCN(CC)S(=O)(=O)c1cc(NC(=S)Nc2cccc(C)c2)ccc1C
 : 36%[activator], 22%
N#Cc1ccccc1COC(=O)c1ccc(C(=O)c2ccccc2)cc1
 : 3%, 2%
CCOc1ccc(-n2c(SCC(=O)N3CCCCCC3)nc3c([nH]c4ccccc43)c2=O)cc1
 : -11%, -9%
c1ccc(COc2ccc(CNc3ccccc3)cc2)cc1
 : 3%, 0%
O=C(CCc1nc(-c2ccncc2)no1)NCc1cccnc1-n1cncn1
 : -6%, 1%
Cc1cc2c3c(c1)c(-c1ccc([N+](=O)[O-])cc1)cn3C(C)(C)CC2C (centres undefined)
 : 9%, 14%
CC(C)=CC[N+]1(C)CCCCC1
 : 9%, 2%
CCN(Cc1nc(-c2ccc(Cl)cc2)no1)C(=O)Nc1cccc2ccccc12
 : -11%, 9%
COC(=O)CC(NC(=O)CCc1ccccc1F)c1cccs1 (centres undefined)
 : 17%, 22%
CN(C)c1ccc(C=Nc2ccc(Br)cc2)cc1
 : -7%, 0%
Cc1ccc(S(=O)(=O)N2CCN(C(=O)c3cc4ccc(F)cc4nc3C)CC2)c(C)c1
 : u, u
O=C(c1cccc(C(F)(F)F)c1)N1CCN(C(=O)C2CC=CCC2)CC1 (centres undefined)
 : -1%, -9%
CC(Oc1ccc2ccc(=O)oc2c1)C(=O)Nc1ccc(C(N)=O)cc1 (centres undefined)
 : 8%, 14%
O=C(NC1CC(=O)N(c2ccc(F)cc2)C1)C(c1ccccc1)c1ccccc1 (centres undefined)
 : u, u
CCn1cc2c(n1)-c1c(oc(C(=O)Nc3cccc(C(F)(F)F)c3)c1C)CC2
 : -5%, 11%
COc1ccc2c(C)c(CCC(=O)N3CCCCC3)c(=O)oc2c1
 : 47%[activator], 0%
O=C(Cn1cc(SCc2ccc(F)cc2)c2ccccc21)N1CCCCCC1
 : 47%[activator], 37%[activator]
CCOc1ccccc1C(=O)N1CCN(CCc2ccccn2)CC1
 : -9%, -10%
CCC(=O)Nc1ccc2oc(-c3ccncc3)nc2c1
 : -10%, 115%[activator]
Cc1cc(Cl)ccc1NC(=O)C1CCN(c2nnc(-n3c(C)ccc3C)s2)CC1
 : -11%, 0%
O=C(CCc1nnc2n(Cc3ccccc3Cl)c(=O)c3ccccc3n12)Nc1ccc(F)c(F)c1
 : -10%, -2%
Cc1cccc(CN2CCN(Cc3cc(=O)oc4c(C)c(O)ccc34)CC2)c1
 : 20µM*, u
COc1cccc2cc(C(=O)N3CCN(c4ccc(C)cc4)CC3)c(=O)oc12
 : 17%, 38%[activator]
COc1cc(C(=O)Nc2ccc3oc(C)nc3c2)ccc1C
 : u, -28%
Cn1ccnc1Sc1nc2c(c(=O)n(C)c(=O)n2C)n1Cc1ccc(F)cc1
 : 0%, 1%
Cc1ccc(C)c(OC(=O)c2ccco2)c1C
 : 4%, 18%
CCOc1ccc(NC(=O)c2ccc3c(=O)n4c(nc3c2)CCCCC4)cc1
 : -2%, 2%
O=C1c2ccccc2-c2ccccc21
 : 12%, 14%
CCCC12CN3CC(C)(CN(C1)C3c1cc(Br)ccc1OC)C2=O (centres undefined)
 : -22%, -7%
CCN1CCN(C(=O)c2cc3c(OC)c(OC)c(OC)cc3[nH]2)CC1
 : 14%, 18%
Cc1c(C)n2c3c(=O)[nH]c(=O)n(C)c3nc2n1CCNc1ccc(Cl)cc1
 : 8%, 11%
Cc1nc2ccc(S(=O)(=O)NCC(=O)Nc3ccc(C)c(Cl)c3)cc2s1
 : 67%[activator], 0%
COc1cccc(CN(C)CC(=O)Nc2cc(C)nn2-c2ccccc2)c1
 : -24%, -27%
Fc1cc(F)cc(-c2noc3ncnc(NCc4ccccc4)c23)c1
 : 9%, -8%
CCCNC(=O)C12CC3CCC(CC(C3)C1)C2
 : -5%, 6%
COc1ccc(OC)c(-c2csc(NC(=O)c3nn(C(C)C)c(=O)c4ccccc34)n2)c1
 : 6%, 0%
COC(CNC(=O)C1CCN(c2ncnc3sc4c(c23)CCC4)CC1)OC
 : 0%, 0%
CCOc1cc(/C=C2\NC(=O)NC2=O)cc(Cl)c1OCc1cccc(F)c1
 : 6%, 0%
CC(=O)c1cccc(NC(=O)CSc2nc(=O)[nH]c3c2CCCC3)c1
 : 8%, 13%
O=C(CSc1ncc(-c2ccc(F)cc2)o1)Nc1ccc(F)c(F)c1
 : -10%, 14%
Cc1ccc(CNC(=O)CSC2=Nc3ccccc3C3=NC(C)C(=O)N23)cc1 (centres undefined)
 : 99%[activator], 30%
Cc1nc2ccc(C(=O)OCC(=O)NC(=O)NC3CC3)cc2nc1C
 : -8%, 74%[activator]
CCCCNC(=O)C1CCC(Cn2c(=O)c3sccc3n(Cc3ccccc3)c2=O)CC1 (centres undefined)
 : -8%, -10%
Cc1ccc(NC(=O)CSc2nc3nc(N4CCCCC4)sc3c(=O)n2C)cc1
 : -3%, -1%
COc1cc(=O)n(-c2ccccc2C)nc1C(=O)NCc1ccc2c(c1)OCO2
 : -7%, -9%
COc1cccc(N2C(=O)c3cc4oc(C)cc4n3CC2(C)C(=O)NC2CCCCCC2)c1 (centres undefined)
 : 82%[activator], -3%
Nc1nnnn1NCc1ccc(-c2cccc(Cl)c2)o1
 : 145%[activator], 0%
CC(C)c1ccc(NC(=O)c2nc3ccccc3n(C)c2=O)cc1
 : -4%, 174%[activator]
CCC1CN(C(=O)N2CCC(C(=O)NCc3cccc(C)c3)CC2)c2ccccc2O1 (centres undefined)
 : -1%, -13%
NCCS(=O)(=O)O
 : 3%, 14%[11.5 µM]
CCOc1ccc(-c2nonc2NC(=O)c2ccccc2C)cc1
 : 13%, -20%
CC(C)NC(=O)Cc1cccs1
 : 4%, u
COc1ccccc1CNC(=O)c1ccc(C(C)(C)C)cc1
 : -6%[1.06 µM], 43%[activator]
O=S(=O)(c1ccccc1)c1nc(-c2ccco2)oc1NCCN1CCOCC1
 : 8%, -8%
COc1ccc(NC(=O)c2oc3ccccc3c2NC(=O)c2cccc(F)c2)c(OC)c1
 : -4%, -10%
Cc1ccc(NC(=O)C2CCCN(c3cnc4ccccc4n3)C2)c(C)c1 (centres undefined)
 : 3%, 14%
COc1ccc2c(-c3ccccc3)cc(SCC(=O)N3CCOCC3)nc2c1
 : 3%, -6%
Cc1ccc2c(CSc3nnc4ccccn34)cc(=O)oc2c1
 : 16%, 0%

# (further entries)
# The line under a structure holds: StopGo RLuc, 2A firefly
S=C1NC2=C(CCc3ccccc32)C(c2ccccc2Cl)N1 (centres undefined)
 : u, u
N#CC(C#N)=Cc1cccn1-c1ccc2ccccc2c1
 : 5%, 0%
O=C(/C=C/c1ccco1)Oc1ccc(Sc2ccc(OC(=O)/C=C/c3ccco3)cc2)cc1
 : 1%, 16%
CCNC(=O)CN1C(=O)CN(C(=O)NCc2ccccc2)c2ccccc21
 : 3%, 16%
COc1ccc(C)cc1NC(=O)C1CCCN(c2ncnc3onc(-c4ccc(F)cc4)c23)C1 (centres undefined)
 : -7%, 0%
CCOc1nc(-c2ccccc2)ccc1-c1noc(-c2ccc(C)cc2)n1
 : 35%[activator], -9%
CCOC(=O)C1CCC(CN(Cc2cccc(Br)c2)S(=O)(=O)c2ccc(C)cc2)CC1 (centres undefined)
 : 21%, 33%[activator]
Cc1c(CC(=O)NCCc2ccccc2F)c(=O)oc2cc(O)ccc12
 : 7%, 5%
CCc1ccc(NC(=O)c2ccc(F)c(S(=O)(=O)N3CCN(c4ccc(OC)cc4)CC3)c2)cc1
 : u, u
Cc1ccc(C)c(N2CCN(CCCNc3ncnc4onc(-c5ccc(Cl)cc5)c34)CC2)c1
 : -12%, -8%
O=C(NCc1cccnc1)c1cc(-c2cccnc2)nc2ccccc12
 : 3%, 1%
Cc1cccc(N2CCN(S(=O)(=O)c3c(C)[nH]c(=O)[nH]c3=O)CC2)c1C
 : -16%, -14%
Cc1cccc(NC(=O)c2c(NC(=O)c3ccccc3)sc3c2CCC3)c1
 : -2%, 35%[activator]
Cc1nn(CC(=O)N2CCN(c3ccc(Cl)cc3)CC2)c(=O)c2cccn12
 : -14%, 0%
O=C(NCc1cccc(Cl)c1)N1CC=C(c2ccc(F)cc2)CC1
 : -11%[1.06 µM], 15%
CC(C)NC(=O)CN(C)c1nc(-c2ccncc2)nc2ccccc12
 : -20%, -12%
CC(C)CNc1oc(-c2ccco2)nc1S(=O)(=O)c1ccc2c(c1)OCCO2
 : 352%[activator], 21%
COc1ccc(NC(=O)c2[nH]nc3c2CSc2ccccc2-3)c(OC)c1
 : 4%, 74%[activator]
Cc1ccccc1-c1noc(-c2cc(-c3ccc(F)cc3)n[nH]2)n1
 : 0%, 30%[activator]
O=C(NCc1cccc(C(F)(F)F)c1)c1ccc2c(c1)CCC2
 : 0%, 4%
CCOc1cc(C(=O)N2CC(=O)Nc3ccc(F)cc3C2c2ccccc2)cc(OCC)c1OCC (centres undefined)
 : -9%, -10%
COc1ccc(OC)c(NC(=O)CSCc2ccc(Cl)c(Cl)c2)c1
 : 2%, -5%
CN1CCN(CCNC(=O)c2ccc(CN3CC(=O)N4CCCCC4C3=O)cc2)CC1 (centres undefined)
 : 22%, 32%[activator]
COc1ccc2cc(C(C)C(=O)NC3CCCCC3)ccc2c1 (centres undefined)
 : -20%, 4%

# 2 compounds drawn at random from the list so far:
# The line under a structure holds: StopGo RLuc, 2A firefly
COc1cccc(CN(C)CC(=O)Nc2cc(C)nn2-c2ccccc2)c1
 : -24%, -27%
O=S(=O)(c1ccccc1)c1nc(-c2ccco2)oc1NCCN1CCOCC1
 : 8%, -8%
